High-throughput results as filed in PubChem BioAssay.
Beta2AR agonist: beta2AR agonists driving receptor internalization, primary screen, cell-based, FAP fluorogen, flow cytometry; Am2.2-beta2AR cells; reference of the scale not given here; AID 504454, 2011; 340,000 tested, 0.43% active; response, % (no concentration beside the values);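 active = response above a set limit, near 3 SD of response in nonfluorescent compounds, cut at about 42% in these data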;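 also: stock transfer was 100 nL into about 11 µL; a reference agonist was the positive control; negative values mostly stem from fluorescent compounds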
Target sequence (P07550 whole entry, looked up): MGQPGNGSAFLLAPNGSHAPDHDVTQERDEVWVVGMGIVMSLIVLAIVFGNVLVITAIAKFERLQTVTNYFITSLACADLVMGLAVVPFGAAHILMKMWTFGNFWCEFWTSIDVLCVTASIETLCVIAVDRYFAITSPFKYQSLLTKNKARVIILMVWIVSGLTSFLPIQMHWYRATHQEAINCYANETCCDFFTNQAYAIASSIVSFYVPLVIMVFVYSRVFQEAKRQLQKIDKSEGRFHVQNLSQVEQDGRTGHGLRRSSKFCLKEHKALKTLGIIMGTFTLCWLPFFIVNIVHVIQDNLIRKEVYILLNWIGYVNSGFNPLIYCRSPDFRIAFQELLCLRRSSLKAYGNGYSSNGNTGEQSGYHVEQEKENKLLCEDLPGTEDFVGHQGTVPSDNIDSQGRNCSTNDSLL
Beta apoptosis: inhibitors of cytokine-induced beta cell apoptosis, primary screen, luminescence. INS-1E cytokine-induced death, ATP luminescence, 48 h; percent of positive-control rescue, neutral wells zero. protection from apoptosis, % (test concentration not listed). 300,000 tested, 0.8% active. AID 435005, 2010;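 active = all replicates at 75% or more, or half of them and the mean; inconclusive = half reach 75% but not the mean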;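 also: 0% = cytokine-treated negative control wells and 100% = positive control rescue; higher means more ATP so stronger rescue from cytokine killing; wells of about 40 µL received 100 nL stock; the first replicate is given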
RanGTP-Imp inh: inhibitors of RanGTP-importin-beta interaction, primary screen, biochemical, FRET, CFP-Ran, YFP-importin-beta, homogeneous | Ran GTPase (GTP-bound) - importin-beta complex | cell-free CFP-Ran/YFP-importin-beta FRET ratio | inhibition, % (concentration not given with the values) | 300,000 tested, 1.1% active | AID 2216, 2009;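 active = most replicates above 15%; inconclusive = exactly half above 15%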;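 also: 0% = DMSO wells and 100% = Ran loaded with GDP instead of GTP; wells of about 40 µL received 100 nL stock; the first replicate is given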
UCH37 DUB inh: inhibitors of human UCH37 deubiquitinase, primary screen, biochemical, Ub-AMC cleavage, fluorescence; 330,000 tested, 0.33% active; inhibition, % (no concentration beside the values); Ubiquitin carboxyl-terminal hydrolase isozyme L5 (Homo sapiens), Q9Y5K5; purified proteasome/UCH37;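 active = mean of two replicates above 20%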;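 also: 0% = compound-free wells with enzyme and 100% = wells lacking proteasome; stock transfer was 100 nL into about 20 µL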
Target sequence (Q9Y5K5 whole entry, looked up): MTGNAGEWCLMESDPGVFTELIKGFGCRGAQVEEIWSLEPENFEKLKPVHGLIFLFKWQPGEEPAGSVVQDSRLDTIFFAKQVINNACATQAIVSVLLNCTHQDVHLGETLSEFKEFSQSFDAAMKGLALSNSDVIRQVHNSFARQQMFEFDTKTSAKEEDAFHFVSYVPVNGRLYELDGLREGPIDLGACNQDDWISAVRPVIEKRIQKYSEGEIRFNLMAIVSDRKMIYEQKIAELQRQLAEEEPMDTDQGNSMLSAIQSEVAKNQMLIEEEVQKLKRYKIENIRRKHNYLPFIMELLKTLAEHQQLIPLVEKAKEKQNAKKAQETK
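Schedule: 30 min plus 25 min, room temperature / Material: human UCH37 within purified proteasomes / Technique: AMC fluorescence intensity at 355/460 nm / Buffer or medium: pH 7.4 Tris-HCl (50 mM) with ovalbumin, ATP-MgCl2, DTT / Controls: wells without proteasome as full block, compound-free enzyme plus substrate as uninhibited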
A1 inh: caspase 3/7 activation in MEF A1-2A-BIM cells, primary screen, A1 inhibitor project, cell-based, luminescence, HTS. AID 2462, 2010. Caspase-Glo 3/7 luminescence, 3 h; percent of clofoctol response, vehicle zero. 330,000 tested, 0.066% active. caspase activation, % (test concentration not listed);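 active = over half of replicate activation scores above 10%, or exactly half above 10 with the replicate mean above 10; inconclusive = replicate mean below 10 yet half the replicates above 10; inactive = over half of replicates below 10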;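 also: wells of about 30 µL received 50 nL stock; many hits fall short of the cut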
T cruzi repl: inhibitors of intracellular T. cruzi growth, primary screen, luminescence, NIH3T3 host cells. T. cruzi beta-gal in NIH3T3, 90 h. inhibition, % (no concentration beside the values). 300,000 tested, 1.4% active;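 active = mean inhibition across valid replicates above about 55%, limit read from the data; inconclusive = mean below that limit but half or more replicates reach it; inactive = mean below it, under half of replicates reach it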;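 also: signal also drops with host cell toxicity which is not excluded here; 0% = plate median of DMSO wells and 100% = zero luminescence signal; higher percent means less beta-gal luminescence so fewer parasites; stock transfer was 50 nL into about 50 µL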
Calb FLC: C. albicans growth inhibition with fluconazole, primary screen, CaCi-2 strain, Alamar Blue fluorescence; C. albicans CaCi-2 (fluconazole-resistant clinical isolate) + fluconazole, 48 h; growth inhibition, % (test concentration not listed); 300,000 tested, 0.57% active;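 active = most replicates above 75%; inconclusive = exactly half above 75%; inactive = most below 75%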;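 also: all wells also contain fluconazole at 8 µg/ml as a sub-toxic cotreatment; 0% = median of DMSO wells and 100% = median of geldanamycin control wells; wells of about 8 µL received 7.5 nL stock; the first replicate is given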
LANA-H2A inh: blockers of LANA interaction with H2A/H2B – biochemical, FP readout, HTS, primary screen; Protein LANA1 (Human herpesvirus 8 type P (isolate GK18)), Q9QR71; cell-free LANA-H2A/H2B peptide, fluorescence polarization; inhibition, % (concentration not given with the values); 320,000 tested, 0.6% active; AID 2629, 2010; in the data active = inhibition mostly above about 10%, no sharp cut-off; inactive = mostly below about 6.7%;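 also: stock transfer was 7.5 nL into about 10 µL; 0% = median of vehicle wells and 100% = median of positive control wells; one replicate is shown; the record names a cut of 25% in any replicate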
* = called active by the depositor; ? = inconclusive; . = no result given; & = joins results of further samples.

Screens in order – A1 inh, UCH37 DUB inh, Beta apoptosis, RanGTP-Imp inh, Beta2AR agonist, LANA-H2A inh, T cruzi repl, Calb FLC
Cc1cc(Cl)ccc1NC(=O)CCC(=O)O
→ 0.4, 1.1, -4, 2.6, -3, 1.2, -2, 4
Cc1ccc(C)c(C(=O)Cn2c(NCCO)nc3ccccc32)c1
→ -0.3, 2.6, -2, 3.0, 3, 0.6, -8, -8
COCC(=O)N1CCC(n2nccc2NC(=O)CCOc2ccccc2)CC1
→ 0.1, 3.1, -3, -4.7, 8, 1.0, -6, -8
O=C(CCC(=O)NCCCc1ccccc1)NCCCc1ccccc1
→ 0.4, 6.3, -15, 0.1, 1, 2.2, 5, 3
Cc1nc(-c2ccc(F)cc2)c(CC(=O)NCC(=O)Nc2ccc(F)c(F)c2)s1
→ 0.6, 2.5, -1, ., 10, 0.5, ., .
O=c1c2ccccc2c(/C=N/c2ncn[nH]2)c(O)n1Cc1ccccc1
→ -1.0, 5.4&8.5, 7, 1.4, 10&11, 3.3, 31, 16
CC(c1ccccc1)N1CC(C(=O)Nc2nccs2)CC1=O (configuration not stated)
→ -0.1, 2.8, ., 1.9, 5, 4.5, 0, -4
CCOC(=O)CN1C(=O)C(O)(CC(=O)c2cccc(OC)c2)c2ccccc21 (configuration not stated)
→ 0.2, 2.7, -15, -2.3, -4, -1.8, -31, -80
CCCN1CCN(S(=O)(=O)c2ccc3c(c2)OCCO3)CC1
→ 0.2, -0.5, 2, 0.8, 1, 6.2, 2, 0
CCCC(=O)Nc1nnc(CCOC)s1
→ -0.1, 0.0, -7, -1.6, 8, 0.4, 4, -13
Cc1ccc2nc3c(cc(C(=O)NCc4ccco4)c(=N)n3C3CCCC3)c(=O)n2c1
→ -0.3, ., 3, 187*, -3, 7.0, 17, 11
CC(=O)Nc1cc2nc(C)n(Cc3ccccc3[N+](=O)[O-])c2nc1C
→ 0.0, 1.6, -4, 8.3, -3, -0.2, -8, -1
CCn1c(C)nc2cc(C(=O)N/N=C/c3ccc(O)c(O)c3O)ccc21
→ ., ., ., 4.2, 14, ., 34, 76*
O=C(NCC(=O)N(c1ccc2c(c1)OCCO2)C(C(=O)NC1CCCC1)c1ccco1)c1ccco1 (configuration not stated)
→ 0.4, 1.4, ., 7.5, 4, -5.9, -10, 0
COc1ccccc1N1CCN(C2CCCN(C(=O)c3ccsc3)C2)CC1 (configuration not stated)
→ -0.2, 1.8, 4, 4.8, -1, 5.2, -2, -5
COC(=O)c1ccc(COc2ccc(F)cc2)o1
→ 0.2, 1.5, -16, 0.4, 1, 6.5, -14, 1
CC(C)CNC(=O)COc1ncnc2sccc12
→ -0.3, 0.0, -6, 1.1, 0, 2.5, -14, 0
CC(=O)Nc1ccc(S(=O)(=O)Nc2ccc(C(=O)NCC(=O)O)cc2)cc1
→ 0.2, 4.9, -1, 1.5, -5, -3.3, -4, 5
O=C(COC(=O)c1cc(=O)[nH]c2ccccc12)NC(=O)c1ccccc1
→ 0.1, -14, -6, 5.5, -2, -0.1, -25, .
CCOc1ccccc1NC(=O)CCCc1nc2ccccc2c(=O)[nH]1
→ 0.3, 4.2, 7, 1.0, -1, -1.8, -13, -14

Whole records, quoted from the list. Order of values: A1 inh	UCH37 DUB inh	Beta apoptosis	RanGTP-Imp inh	Beta2AR agonist	LANA-H2A inh	T cruzi repl	Calb FLC
CCCC(=O)Nc1nnc(CCOC)s1 in the list: -0.1	0.0	-7	-1.6	8	0.4	4	-13
CC(c1ccccc1)N1CC(C(=O)Nc2nccs2)CC1=O (configuration not stated) in the list: -0.1	2.8	.	1.9	5	4.5	0	-4

The listing picks up with the two entries that preceded the break.
Screens in order – A1 inh, UCH37 DUB inh, Beta apoptosis, RanGTP-Imp inh, Beta2AR agonist, LANA-H2A inh, T cruzi repl, Calb FLC
O=C(COC(=O)c1cc(=O)[nH]c2ccccc12)NC(=O)c1ccccc1
→ 0.1, -14, -6, 5.5, -2, -0.1, -25, .
CCOc1ccccc1NC(=O)CCCc1nc2ccccc2c(=O)[nH]1
→ 0.3, 4.2, 7, 1.0, -1, -1.8, -13, -14
CCN1CCN(C(=O)Cn2ncc3c([nH]c4ccccc43)c2=O)CC1
→ 1.0, -2.2, 1, -0.4, -2, 2.3, -7, 1
Cc1nn2c(NCCN(C)C)c3c(nc2c1-c1ccccc1)CCC3
→ 0.7, 4.2, 3, -1.0, -4, 8.5, 15, -1
CC(C)CC(NC(=O)/C(=C/c1ccco1)NC(=O)c1ccc(Br)o1)C(=O)O (configuration not stated)
→ 0.2, 0.3, -5, 7.8, -1, -3.5, -6, 14
Cn1c(=O)c2ncn(CC(=O)NCCOc3ccccc3)c2n(C)c1=O
→ -0.1, 5.9, 2, -1.8, 7, 1.7, -3, -1
COC(=O)c1ccc(NC(=O)CSc2nnc(-c3ccncc3)n2N)cc1
→ -0.4, 1.7, -4, 3.3, 6, -1.2, -18, -2
Cc1ccc(CSc2nnc3c(n2)OC2(Nc4ccccc4-3)C(=O)Nc3ccc(F)cc32)cc1 (configuration not stated)
→ 0.9, 1.3, -22, ?, -1, -2.9, -13, -36
Cc1ccccc1NC(=S)NC(=O)/C=C/c1ccco1
→ 0.1, 3.5, -6, -5.0, 11, 1.8, -2, 6
Cc1cccc(N/C(=N/S(=O)(=O)c2ccccc2)c2ccccc2)n1
→ -0.1, ., 0, 3.7, -4, 1.2, -3, 2
Cc1ccc(NC(=O)CSc2cn[nH]n2)cc1
→ 0.3, 3.5, ., 0.5, -6, 1.0, -24, -3
COc1ccc2c(c1)OC(O)(C(F)(F)C(F)F)CC2=O (configuration not stated)
→ -1.0, 3.9, 5, 4.9, 9, 1.5, 0, ?
CCOC(=O)CNC(=O)c1cn(C)c(=O)c2cc(OC)c(OC)cc12
→ 0.5, -0.2, -8, -1.6, -3, -1.5, -13, 10
CN(c1ccccc1)S(=O)(=O)c1ccc(Cl)c(C(=O)Nc2ccncc2)c1
→ -0.4, 1.4, -2, ., -2, 3.6, ., .
CCN(C(=O)CN1CCCCC1C)c1c(N)n(Cc2ccccc2)c(=O)[nH]c1=O (configuration not stated)
→ -0.8, 1.4, -2, ., 1, 4.9, ., .
COc1ccc(-c2noc(C3CCCN(C(=O)c4ccc(F)cc4)C3)n2)cc1 (configuration not stated)
→ -0.3, 2.7, 1, -1.1, 2, -4.3, -3, -1
CCCC(C(=O)Nc1cc(S(=O)(=O)N2CCOCC2)ccc1OC)c1ccccc1 (configuration not stated)
→ 0.6, -0.9, -18, -2.7, 6, 8.0, 15, 0
CCCn1c(SCC(=O)NC2CCC(C)CC2)n[nH]c1=O (configuration not stated)
→ 0.3, 3.5, -1, ., 1, 11, ., .
O=S(=O)(c1ccc(N2CCOCC2)nc1)N1CCOCC1
→ 0.9, -1.0, -2, 4.1, -4, 4.6, -10, -3
O=C(Nc1ccccc1)C1=C[C@@H](c2coc3ccccc3c2=O)C[C@@H](OCCCCO)O1
→ 1.1, -1.2, 4, 5.0, -15, -1.5, -4, -7
O=C(CC(SCCO)c1ccc2c(c1)OCO2)c1ccco1 (configuration not stated)
→ 0.0, -4.1, 1, 2.7, 1, -0.1, -38, 3
Cc1ccc(Cl)cc1N1CCN(S(=O)(=O)c2ccc3[nH]c(=O)ccc3c2)CC1
→ 0.4, 2.2, 20, 0.4, -3, 2.0, -2, -4

Taken from above.
`CCCn1c(SCC(=O)NC2CCC(C)CC2)n[nH]c1=O` (configuration not stated) in Beta apoptosis has -1
`COc1ccc2c(c1)OC(O)(C(F)(F)C(F)F)CC2=O` (configuration not stated) in A1 inh has -1.0
`COc1ccc(-c2noc(C3CCCN(C(=O)c4ccc(F)cc4)C3)n2)cc1` (configuration not stated) in T cruzi repl has -3

(next part)
Screens in order – A1 inh, UCH37 DUB inh, Beta apoptosis, RanGTP-Imp inh, Beta2AR agonist, LANA-H2A inh, T cruzi repl, Calb FLC
CCOc1ccc(S(=O)(=O)NCCC(=O)NCC2COc3ccccc3O2)cc1 (configuration not stated)
→ 0.3, 2.5, 1, ., 2, -1.7, ., .
Cc1cc2ccccc2nc1SCC(=O)Nc1nc(-c2ccccc2)cs1
→ -0.3, 2.8, 0, 0.9, 18, -0.2, 16, 17
CCn1c(C)nnc1SCC(=O)Nc1ccccc1Cl
→ 1.1, 0.4, -6, -0.7, -5, -3.0, -1, -4
CCn1c(COc2ccccc2C)nnc1SCC(=O)Nc1ccc2c(c1)OCCO2
→ ., 0.6, ., -1.3, -4, ., -19, -9
COc1ccc(CC(=O)OCC(=O)NC(=O)NC(C)C)cc1
→ 0.2, 4.8, 3, 0.4, 6, 3.7, -25, 60
O=C1NCC(COc2cccc3ccccc23)O1 (configuration not stated)
→ 0.4, 2.2, -7, 1.6, 3, -0.6, 8, -5
O=C(CSc1nnc2c(n1)[nH]c1ccc(F)cc12)Nc1ccccc1F
→ 0.4, 2.7, -7, -1.7, 0, 1.9, -3, .
COc1ccc(-c2ccc3c(c2)S(=O)(=O)c2cccc(C(=O)NCc4cccc(OC(F)(F)F)c4)c2C3=O)cc1OC
→ 39*, 3.6, 11, ., -3, 16, ., .
COc1ccc(OC)c(S(=O)(=O)NCC(c2ccc3c(c2)OCO3)N2CCOCC2)c1 (configuration not stated)
→ 0.7, 0.8, -1, -1.0, -8, 8.4, -2, -7
CN(C)S(=O)(=O)Oc1ccccc1C(=O)Nc1ccc(F)cc1
→ 0.9, 4.9, -2, 0.6, 2, 2.8, 3, -6
O=C(CNS(=O)(=O)c1ccc(Cl)c(C(F)(F)F)c1)NC1CCCCC1
→ -0.9, 0.4, -2, ., -13, -1.5, ., .
Cc1ccc(OC(C)C(=O)Nc2ccc(Cl)cn2)c([N+](=O)[O-])n1 (configuration not stated)
→ -1.1, -0.3, -1, ., 9, -0.7, ., .
CCCc1cc(=O)[nH]c(SCC(=O)N(C)Cc2ccccc2)n1
→ 0.5, 2.0, -23, 3.8, 6, 2.3, 1, 5
CC1=C(C(=O)OC(C)(C)C)C(c2cccs2)NC(=O)N1 (configuration not stated)
→ -0.1, -1.3, -14, -2.9, 1, 3.1, -6, -1
